ALR inh: inhibitors of human ALR sulfhydryl oxidase, primary screen, biochemical, H2O2 detection, HRP-luminol luminescence, single point; FAD-linked sulfhydryl oxidase ALR (Homo sapiens), P55789; purified ALR, DTT oxidation; inhibition, % (test concentration not listed); actives 3.8% (n = 290,000); AID 485317, 2010;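 active = mean and each replicate at 75% or more; inconclusive = only one of the two met; inactive = neither met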;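 also: stock transfer was 7.5 nL into about 7.5 µL; 0% = neutral wells and 100% = wells with inactivated enzyme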
Target sequence (P55789 whole entry, looked up): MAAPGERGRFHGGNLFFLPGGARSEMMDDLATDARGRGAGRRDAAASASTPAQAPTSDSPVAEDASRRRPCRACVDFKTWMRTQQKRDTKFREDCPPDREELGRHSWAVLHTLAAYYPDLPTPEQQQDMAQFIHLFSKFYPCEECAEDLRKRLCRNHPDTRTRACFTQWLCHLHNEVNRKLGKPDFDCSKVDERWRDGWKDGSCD
Beta2AR agonist: beta2AR agonists driving receptor internalization, primary screen, cell-based, FAP fluorogen, flow cytometry. Beta-2 adrenergic receptor (Homo sapiens), P07550. Am2.2-beta2AR cells; reference of the scale not given here. response, % (test concentration not listed). actives 0.43% (n = 340,000). AID 504454, 2011;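 active = response above a set limit, near 3 SD of response in nonfluorescent compounds, cut at about 42% in these data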;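 also: stock transfer was 100 nL into about 11 µL; a reference agonist was the positive control; negative values mostly stem from fluorescent compounds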
Target sequence (P07550 whole entry, looked up): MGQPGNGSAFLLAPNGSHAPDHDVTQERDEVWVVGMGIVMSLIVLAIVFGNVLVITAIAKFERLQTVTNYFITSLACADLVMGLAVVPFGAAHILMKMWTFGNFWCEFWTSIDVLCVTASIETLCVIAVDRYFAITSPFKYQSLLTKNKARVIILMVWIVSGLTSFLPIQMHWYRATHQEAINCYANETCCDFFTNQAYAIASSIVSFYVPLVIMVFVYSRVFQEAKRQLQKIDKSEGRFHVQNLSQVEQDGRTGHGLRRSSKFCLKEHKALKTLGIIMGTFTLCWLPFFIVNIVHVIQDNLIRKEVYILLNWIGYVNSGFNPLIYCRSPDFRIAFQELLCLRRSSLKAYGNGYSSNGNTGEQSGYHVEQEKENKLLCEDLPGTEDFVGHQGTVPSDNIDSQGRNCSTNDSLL
LANA-H2A inh: blockers of LANA interaction with H2A/H2B – biochemical, FP readout, HTS, primary screen; Protein LANA1 (Human herpesvirus 8 type P (isolate GK18)), Q9QR71; cell-free LANA-H2A/H2B peptide, fluorescence polarization; inhibition, % (concentration not given with the values); actives 0.6% (n = 320,000); AID 2629, 2010; in the data active = inhibition mostly above about 10%, no sharp cut-off; inactive = mostly below about 6.7%;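 also: stock transfer was 7.5 nL into about 10 µL; 0% = median of vehicle wells and 100% = median of positive control wells; one replicate is shown; the record names a cut of 25% in any replicate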
Calb FLC: C. albicans growth inhibition with fluconazole, primary screen, CaCi-2 strain, Alamar Blue fluorescence. C. albicans CaCi-2 (fluconazole-resistant clinical isolate) + fluconazole, 48 h. growth inhibition, % (no concentration beside the values). actives 0.57% (n = 300,000). AID 1979, 2009;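 active = most replicates above 75%; inconclusive = exactly half above 75%; inactive = most below 75%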;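 also: all wells also contain fluconazole at 8 µg/ml as a sub-toxic cotreatment; 0% = median of DMSO wells and 100% = median of geldanamycin control wells; wells of about 8 µL received 7.5 nL stock; the first replicate is given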
HNF4A DNA FP: change in binding of human HNF4A to DNA, primary screen, biochemical, fluorescence polarization, FITC-DNA; Hepatocyte nuclear factor 4-alpha (Homo sapiens), P41235; 1 h; activity change, % at 10 µM; actives 0.3% (n = 360,000); AID 1224865, 2016; in the data active = activity change above about 30%, passing the limit was not always enough;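 also: controls were the assay level and a saturating level of protein; the project sought stronger binding though the title names inhibitors; some compounds called inactive have numbers as strong as hits; positive values seem to mean higher polarization but the record does not say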
Vif A3G: inhibitors of Vif binding to APOBEC3G peptide, primary screen, biochemical, TR-FRET, GST-Vif 1-94, biotin-A3G peptide, dose response retest (AID 1117319); TR-FRET GST-Vif / biotin-A3G peptide binding; higher % means a stronger effect; test concentration not given here; strong numbers were not always called active; inhibition, %; hits with a dose series show IC50 in µM; actives 0.57% (n = 260,000);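 active = above the screen mean plus three standard deviations and confirmed in dose response; inconclusive = results disagree or hit not tested in dose response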;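 also: Vif residues 1-94 fused to GST binding biotinylated APOBEC3G peptide 110-148; 0% = full assay without inhibitor and 100% = GST in place of GST-Vif; retest series ran down from 100 µM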
RanGTP-Imp inh: inhibitors of RanGTP-importin-beta interaction, primary screen, biochemical, FRET, CFP-Ran, YFP-importin-beta, homogeneous. AID 2216, 2009. actives 1.1% (n = 300,000). inhibition, % (no concentration beside the values). cell-free CFP-Ran/YFP-importin-beta FRET ratio. Ran GTPase (GTP-bound) - importin-beta complex;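 active = most replicates above 15%; inconclusive = exactly half above 15%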;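 also: 0% = DMSO wells and 100% = Ran loaded with GDP instead of GTP; wells of about 40 µL received 100 nL stock; the first replicate is given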
* marks the source's active call; other numbers are inactive results; ? = inconclusive; nt = not tested or not shown.

#	SMILES	ALR inh	Beta2AR agonist	LANA-H2A inh	Calb FLC
1	CCn1c(C)nc2cc(C(=O)NNC(=O)CCC3CCCCC3)ccc21	-1.1	-2.8	3.1	45.2
2	O=S(=O)(c1ccc(Cl)cc1)c1cnc(-c2cccnc2)nc1-c1ccccc1	nt	-16.4	0.8	58.9
3	c1ccc(Cn2c(Nn3cnnc3)nc3ccccc32)cc1	62.4	-8.2	2.5	16.2
4	O=c1cc(C(F)F)oc2c1ccc1ccccc12	2.6	4.6	2.7	-5.5
5	NCCCCCc1cn([C@@H](CO)C(=O)NCCCCCCCCCCC(=O)N2CCNCC2)nn1	-5.9	-19.2	0.7	nt
6	Cc1nn(C)cc1C(C)Nc1nc2nonc2nc1N1CCCCC1 (centres undefined)	-0.9	-3.0	2.1	-17.5
7	CC(=O)N1CC2(CC(=O)OC(C)C)CN(C(C)=O)CC(CC(=O)OC(C)C)(C1)C2=O	nt	-0.2	nt	0.2
8	O=C(Nc1ccc(Cl)c(S(=O)(=O)N2CCOCC2)c1)C1=NN(c2ccccc2)C(=O)CC1	-4.5	0.5	4.1	nt

#	HNF4A DNA FP	Vif A3G	RanGTP-Imp inh
1	0.9	102.9%	3.3
2	0.4	-0.4%	-0.4
3	3.1	21.8%	2.0
4	-1.4	14.6%	1.0
5	-0.6	nt	nt
6	-1.8	6.3%	-2.3
7	-0.7	?	1.0
8	0.2	2.5%	nt

The listing continues:
#	SMILES	ALR inh	Beta2AR agonist	LANA-H2A inh	Calb FLC
9	O=C1NCCN1CCN1C(=O)c2ccccc2NC1c1ccccc1 (centres undefined)	-0.8	-3.5	2.8	-11.9
10	C=CC[C@@H](Cc1ccc(F)cc1)C(=O)OC[C@@H]1CCCN1C(=O)[C@H](CC=C)CC(=O)N[C@H](CO)Cc1ccccc1	-5.9	8.7	1.6	nt
11	CCCc1cc(=O)[nH]c(SCC(=O)c2cc(C)n(-c3c(C)n(C)n(-c4ccccc4)c3=O)c2C)n1	1.3	-1.6	-9.3	-11.8
12	CC(=O)OCCNc1cc(Sc2nc3ccccc3[nH]2)c2nonc2c1[N+](=O)[O-]	95.8*	26.2	-4.2	-0.3
13	Cc1ccc(C(=O)NC(=S)NCc2ccccc2)cc1	-2.2	-5.2	-1.7	-13.2
14	CC(C)OC(=O)c1ccc(OC(=O)c2cccnc2)cc1	4.5	0.7	-6.3	3.3
15	C=C(C)CNC(=O)c1ccc2nc(Cc3ccc(OC)cc3)oc2c1	nt	-5.2	-0.5	-1.3
16	NC(=O)CC1C(=O)N(c2ccccc2)C(=S)N1NC(=O)c1ccccc1 (centres undefined)	20.2	1.7	0.8	-0.5

#	HNF4A DNA FP	Vif A3G	RanGTP-Imp inh
9	4.1	-7.1%	0.7
10	1.1	nt	nt
11	2.0	18.3%	?
12	4.2	nt	3.8
13	-0.6	nt	-1.4
14	-2.4	1.8%	3.3
15	4.3	nt	-6.2
16	3.4	7.8%	-4.7

The list goes on.
#	SMILES	ALR inh	Beta2AR agonist	LANA-H2A inh	Calb FLC
17	CN(C)S(=O)(=O)N1CCN(Cc2ccccc2)CC1	-0.1	-1.5	-0.4	-1.3
18	CC(=O)Nc1ccccc1NS(=O)(=O)c1ccc(Cl)cc1	4.0	9.7	1.0	?
19	Nc1nnc(Cc2ccccc2F)s1	-2.1	4.9	0.3	7.1
20	c1ccc(OCCSc2nc3ccccc3o2)cc1	1.0	0.4	-3.1	-6.1
21	O=C(N/N=C1/CCSC1)c1cc(Br)ccc1O	92.7*	3.8	-0.6	-2.9
22	Cc1cccc(-c2noc(CN(C)S(=O)(=O)c3cc(Cl)ccc3Cl)n2)c1	-5.2	-4.3	-4.2	-26.7
23	C/C=C1\C(OC2OC(CO)C(O)C(O)C2O)OC=C(C(=O)OC)C1CC(=O)OCC1C(C)C(OC(=O)CC2C(C(=O)OC)=COC(OC3OC(CO)C(O)C(O)C3O)/C2=C\C)CC1C(CO)CO (centres undefined)	42.0	3.1	4.7	-1.0
24	CCOC(=O)c1c(C)c(-c2ccccc2)n(CC(=O)N2CCN(C)CC2)c1C	nt	2.2	6.7	-3.5

#	HNF4A DNA FP	Vif A3G	RanGTP-Imp inh
17	-1.8	0.0%	0.0
18	-1.2	-5.0%	-6.6
19	-1.8	nt	-1.5
20	0.8	0.3%	1.2
21	0.0	nt	0.2
22	-3.9	6.8%	-2.0
23	2.3	nt	2.7
24	3.5	-1.5%	4.9

(listing goes on)
#	SMILES	ALR inh	Beta2AR agonist	LANA-H2A inh	Calb FLC
25	CSc1cccc(NC(=S)NC(=O)c2cccnc2)c1	-2.8	18.6	-4.7	-2.1
26	CCOCCn1c(=O)c2c(nc3n2CC(C)CN3CCc2ccccc2)n(C)c1=O (centres undefined)	11.8	0.8	1.2	10.4
27	Cc1ccccc1C(=O)N/N=C/c1ccc([N+](=O)[O-])s1	-22.1	-3.3	1.9	30.4
28	CC(=O)c1c(C)[nH]c(C(=O)Nc2cccc3ccccc23)c1C	12.4	2.9	3.4	10.3
29	CC1CCN(C(=O)COC(=O)CCC(=O)c2cccs2)CC1	nt	-18.2	nt	nt
30	C#CCn1c(=NC(=O)c2ccccc2[N+](=O)[O-])sc2cc(S(C)(=O)=O)ccc21	-5.5	8.8	-2.3	-0.3
31	Cc1ccc(CNC(=O)CSc2nc3ccccc3c(=O)n2CCCO)cc1	-4.9	5.2	-20.5	5.7
32	COc1ccccc1CNC(=S)NCCc1ccccc1	1.1	-3.3	-11.7	-7.9

#	HNF4A DNA FP	Vif A3G	RanGTP-Imp inh
25	1.6	nt	?
26	-5.4	nt	2.9
27	1.7	4.0%	5.2
28	2.2	nt	2.9
29	-1.1	-7.6%	nt
30	-0.4	29.9%	-0.4
31	3.0	-2.8%	-0.3
32	-3.5	-3.7%	?

Next compounds:
#	SMILES	ALR inh	Beta2AR agonist	LANA-H2A inh	Calb FLC
33	COCCNC(=O)Cn1cnc([N+](=O)[O-])n1	-24.6	-0.2	2.7	-0.7
34	Cc1[nH]n2cnnc2c(=O)c1Br	-11.1	-3.5	4.7	-3.6
35	CCOc1ccc(/C=C2\CCC(C3CCCC3)C2=O)cc1 (centres undefined)	-12.7	5.6	-0.2	-1.0
36	CCOc1ccc(S(=O)(=O)Nc2cccc(OC)c2)cc1	1.3	-7.1	-1.4	-10.0

#	HNF4A DNA FP	Vif A3G	RanGTP-Imp inh
33	0.4	nt	-1.5
34	3.2	28.6%	0.1
35	0.6	-5.9%	-0.4
36	2.5	1.5%	-0.9

15 successive records out of the list so far:
#	SMILES	ALR inh	Beta2AR agonist	LANA-H2A inh	Calb FLC
21	O=C(N/N=C1/CCSC1)c1cc(Br)ccc1O	92.7*	3.8	-0.6	-2.9
22	Cc1cccc(-c2noc(CN(C)S(=O)(=O)c3cc(Cl)ccc3Cl)n2)c1	-5.2	-4.3	-4.2	-26.7
23	C/C=C1\C(OC2OC(CO)C(O)C(O)C2O)OC=C(C(=O)OC)C1CC(=O)OCC1C(C)C(OC(=O)CC2C(C(=O)OC)=COC(OC3OC(CO)C(O)C(O)C3O)/C2=C\C)CC1C(CO)CO (centres undefined)	42.0	3.1	4.7	-1.0
24	CCOC(=O)c1c(C)c(-c2ccccc2)n(CC(=O)N2CCN(C)CC2)c1C	nt	2.2	6.7	-3.5
25	CSc1cccc(NC(=S)NC(=O)c2cccnc2)c1	-2.8	18.6	-4.7	-2.1
26	CCOCCn1c(=O)c2c(nc3n2CC(C)CN3CCc2ccccc2)n(C)c1=O (centres undefined)	11.8	0.8	1.2	10.4
27	Cc1ccccc1C(=O)N/N=C/c1ccc([N+](=O)[O-])s1	-22.1	-3.3	1.9	30.4
28	CC(=O)c1c(C)[nH]c(C(=O)Nc2cccc3ccccc23)c1C	12.4	2.9	3.4	10.3
29	CC1CCN(C(=O)COC(=O)CCC(=O)c2cccs2)CC1	nt	-18.2	nt	nt
30	C#CCn1c(=NC(=O)c2ccccc2[N+](=O)[O-])sc2cc(S(C)(=O)=O)ccc21	-5.5	8.8	-2.3	-0.3

#	HNF4A DNA FP	Vif A3G	RanGTP-Imp inh
21	0.0	nt	0.2
22	-3.9	6.8%	-2.0
23	2.3	nt	2.7
24	3.5	-1.5%	4.9
25	1.6	nt	?
26	-5.4	nt	2.9
27	1.7	4.0%	5.2
28	2.2	nt	2.9
29	-1.1	-7.6%	nt
30	-0.4	29.9%	-0.4

#	SMILES	ALR inh	Beta2AR agonist	LANA-H2A inh	Calb FLC
31	Cc1ccc(CNC(=O)CSc2nc3ccccc3c(=O)n2CCCO)cc1	-4.9	5.2	-20.5	5.7
32	COc1ccccc1CNC(=S)NCCc1ccccc1	1.1	-3.3	-11.7	-7.9
33	COCCNC(=O)Cn1cnc([N+](=O)[O-])n1	-24.6	-0.2	2.7	-0.7
34	Cc1[nH]n2cnnc2c(=O)c1Br	-11.1	-3.5	4.7	-3.6
35	CCOc1ccc(/C=C2\CCC(C3CCCC3)C2=O)cc1 (centres undefined)	-12.7	5.6	-0.2	-1.0

#	HNF4A DNA FP	Vif A3G	RanGTP-Imp inh
31	3.0	-2.8%	-0.3
32	-3.5	-3.7%	?
33	0.4	nt	-1.5
34	3.2	28.6%	0.1
35	0.6	-5.9%	-0.4

Quoted at random: two compounds from above, in no set order.
#	SMILES	ALR inh	Beta2AR agonist	LANA-H2A inh	Calb FLC
34	Cc1[nH]n2cnnc2c(=O)c1Br	-11.1	-3.5	4.7	-3.6
33	COCCNC(=O)Cn1cnc([N+](=O)[O-])n1	-24.6	-0.2	2.7	-0.7

#	HNF4A DNA FP	Vif A3G	RanGTP-Imp inh
34	3.2	28.6%	0.1
33	0.4	nt	-1.5
